GIV Gai3 FP: GIV-Galpha-i interaction inhibition; Galpha-i3/FITC-GIV peptide fluorescence polarization, 90 min; active compounds read low; scaled: aluminum fluoride 0%, vehicle 100%; AID 1224905; 0.42% of 210,000 active; percent of control (FP), % (no concentration beside the values);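 active = replicate mean at 85% of control or lower, very high polarization wells dropped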;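 also: wells of about 15 µL received 100 nL stock; the first replicate is given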
Target sequence (P08753 whole entry, looked up): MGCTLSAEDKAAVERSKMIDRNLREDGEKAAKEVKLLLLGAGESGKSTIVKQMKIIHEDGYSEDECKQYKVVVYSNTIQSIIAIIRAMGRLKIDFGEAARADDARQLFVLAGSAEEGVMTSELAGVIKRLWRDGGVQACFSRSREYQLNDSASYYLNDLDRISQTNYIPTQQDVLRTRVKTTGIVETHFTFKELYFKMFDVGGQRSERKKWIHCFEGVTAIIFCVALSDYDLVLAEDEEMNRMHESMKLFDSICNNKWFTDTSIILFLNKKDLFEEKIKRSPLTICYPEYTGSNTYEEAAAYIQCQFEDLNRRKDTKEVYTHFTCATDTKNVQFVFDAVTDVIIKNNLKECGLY
HCMV NEC inh: inhibitors of HCMV UL50-UL53 nuclear egress complex interaction | HTRF UL50-UL53 interaction, normalized percent inhibition | inhibition, % (concentration not given with the values) | 0.15% of 190,000 active;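 active = both replicates at 50% or more, plus weaker picks with an unusually low signal ratio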;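 also: stock transfer was 100 nL into about 20 µL; 0% = negative control wells and 100% = wells with untagged competitor protein; inactives centre near -12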
An asterisk follows results filed as active; . = not tested or not shown; & = joins results of further samples.

SMILES | GIV Gai3 FP | HCMV NEC inh
COc1cc(/C=C2/N=C(c3cccc(Br)c3)OC2=O)cc(OC)c1OC | 113 | .
O=C(OCC(O)CO)c1ccccc1Nc1ccnc2cc(Cl)ccc12 (stereo not given) | . | -53
CS(=O)(=O)c1ccc(Cn2c3c(c4cc(F)cc(F)c42)CCCC3CC(=O)O)cc1 (stereo not given) | . | -5
CC1(C)C(C=C(Cl)Cl)C1C(=O)N1CCCCC1 (stereo not given) | . | 8
O=C1Nc2ccc(Br)cc2/C1=C/c1cc2c([nH]1)CCCC2 | . | -3
CC1CC(OCC(O)CN2CCN(c3ccccc3F)CC2)CC(C)(C)C1 (stereo not given) | . | -15
CC(C)c1ccc(S(=O)(=O)N2CCCCC2)cc1 | . | 1
CCN1C(=O)/C(=C/c2cccc(OC)c2)SC1=S | . | -15
CCC(=O)Nc1ccccc1-c1nc2ccccc2s1 | . | -8
CCSc1nnc(NC(=O)CSc2cn(CC)c3ccccc23)s1 | . | -13

In the list so far, 2 contain two or more sulfur atoms:
SMILES | GIV Gai3 FP | HCMV NEC inh
CCN1C(=O)/C(=C/c2cccc(OC)c2)SC1=S | . | -15
CCSc1nnc(NC(=O)CSc2cn(CC)c3ccccc23)s1 | . | -13

The listing continues:
SMILES | GIV Gai3 FP | HCMV NEC inh
O=C(/C=C/c1ccco1)Nc1ccc(S(=O)(=O)N2CCCCCC2)cc1 | . | -2
Cn1cccc1Cc1nnc(SCC(N)=O)n1CCc1ccccc1 | . | -13
Cc1ccccc1NS(=O)(=O)c1cc(F)ccc1CN1C(=O)c2cccnc2C1=O | . | 2
Cc1ccc(NC(=O)C2CCCN(S(=O)(=O)c3ccccc3)C2)cc1 (stereo not given) | . | -13
CCOC(=O)Cc1csc(NC(=O)c2ccc(Br)cc2F)n1 | . | -16
COC1CC2CCC(C)[C@@](O)(O2)C(=O)C(=O)N2CCCCC2C(=O)OC(C(C)CC2CCC(O)C(OC)C2)CC(=O)C(C)C=C(C)C(O)C(OC)C(=O)C(C)CC(C)C=CC=CC=C1C (stereo not given in full) | . | -16
COc1ccccc1-c1nc(-c2cccs2)cc(=O)o1 | . | 1
COc1cc2c(cc1-c1nnc3ccccn13)OCO2 | . | -15&-15
CC(C)[C@@H]1NC(=O)[C@H]2CN(C(=O)c3ccccc3Cl)CCN2C1=O | . | -9
NC1=N[C@@]2(c3cc(NC(=O)c4ccc(F)cn4)ccc3F)COC[C@@H]2CS1 | . | -8
CC(C)NCC(O)COc1ccc(C(C)(C)C)cc1 (stereo not given) | . | -14
CCCCCCCCCC(=O)N[C@@H](CN1CCOCC1)[C@@H](O)c1ccccc1 | . | -18&-18
CCOC(=O)C(C)Sc1nnc(NC(=O)C2CC2)s1 (stereo not given) | . | -18
CN(C)CCCCSC(=N)N | . | 5
CCCc1cc(=O)oc2c(CN3CCCCC3)c(O)ccc12 | . | -27
O=C(NCCc1ccccn1)c1cc(C(=O)C2CCCCC2)c[nH]1 | . | -1
Nc1cccc2c1CN(C1CCC(=O)NC1=O)C2=O (stereo not given) | . | -17
CC(C)(C)c1cc(CN2CCOCC2)c(O)c(CN2CCOCC2)c1 | . | -2
CCOC(=O)CSc1nc(C2CC2)cc(-c2ccccc2)c1C#N | . | -3
CC1(C)O[C@@H]2C[C@H]3[C@@H]4CCC5=CC(=O)C=C[C@]5(C)[C@@H]4C(O)C[C@]3(C)[C@@]2(C(=O)CO)O1 (stereo not given in full) | . | 6
Oc1ccc(-c2[nH]ncc2-c2nc3ccccc3s2)c(O)c1 | . | -12
CCSc1nnc2sc3ccccc3n12 | . | 4
CCCCc1ccc(NS(=O)(=O)c2cccs2)cc1 | . | 8&0
Cc1cc(=O)oc2cc(NC(=O)C3CCC(=O)N3)ccc12 (stereo not given) | . | -14
O=c1ccc2cc(O)c(O)cc2o1 | . | -58
C[C@]12C=CC(=O)C=C1CC[C@H]1[C@@H]3CC(O)[C@@](O)(C(=O)CO)[C@@]3(C)CC(O)[C@]12F (stereo not given in full) | . | -34
N#CC1=C(N)OC2=C(C(=O)CC(c3ccccc3)C2)C1C1CCCCC1 (stereo not given) | . | -19
O=C(Nc1nncs1)NC1Cc2ccccc2C1 | . | 47&47
COc1cccc(OCC(O)CN2CCc3ccccc3C2)c1 (stereo not given) | . | -3
CC1Cc2ccccc2N1C(=O)C12CCC(C)(C(=O)C1)C2(C)C (stereo not given) | . | -5
C=CCn1nnnc1SCC(=O)c1ccc(OC)cc1 | . | -7
COc1ccc(CN2C[C@@H](COc3cccc(C(F)(F)F)c3)C[C@@H](C(=O)NCC(C)C)C2)cc1OC | . | -10
Cc1nn2c(=O)c3ccc(C(=O)NCc4ccc5c(c4)OCO5)cc3nc2s1 | . | 3
CN(C1CCCCC1)S(=O)(=O)c1ccc(C(=O)Nc2nccs2)cc1 | . | 11
CCn1c(CCNC(=O)Cc2ccccc2)nc2ccccc21 | . | -17
NC(=O)c1c(NC(=O)COc2ccc(Cl)cc2)sc2c1CCN(Cc1ccccc1)C2 | . | -14
O=C(O)c1cnc(-c2ccccc2)[nH]1 | . | -5
COc1cccc(OCC(=O)NCC(=O)O)c1 | . | -18
Cc1ccccc1C(=O)c1ccc(Nc2ccc(Br)cc2N)cc1Cl | . | -34&2
Cc1ccc2c(c1)sc(=NC(=O)C(C)C)n2C | . | -21

Structural class, the entries above containing a thiophene ring, fused or not (three)
SMILES | GIV Gai3 FP | HCMV NEC inh
COc1ccccc1-c1nc(-c2cccs2)cc(=O)o1 | . | 1
CCCCc1ccc(NS(=O)(=O)c2cccs2)cc1 | . | 8&0
NC(=O)c1c(NC(=O)COc2ccc(Cl)cc2)sc2c1CCN(Cc1ccccc1)C2 | . | -14

Following part
SMILES | GIV Gai3 FP | HCMV NEC inh
CC(C)CC(N)=O | . | -14&-15
COc1ccc(CC#N)cc1OC | . | -24
OC(CCN1CCCCC1)(c1ccccc1)C1C[C@@H]2C=C[C@H]1C2 (stereo not given in full) | . | -12
Cc1ccc(NC(=O)c2ccc(CN3CCN(C)CC3)cc2)cc1Nc1nc(-c2cccnc2)cs1 | . | -25&-43&-54&-48
CN | . | -10
O=C(CSc1ncnc2ccccc12)Nc1ccccc1 | . | -21
CCCCn1c(C(C)NC(=O)CC)nc2ccccc21 (stereo not given) | . | -4
O=C(O)COc1ccc(OCCNC[C@@H](O)COc2ccccc2)cc1 | . | 0
c1ccc2c(Oc3ccc4c(c3)OCO4)nncc2c1 | . | -3
CCOC(=O)c1nn(CCc2ccc(OC)cc2)c2c1CN(Cc1cccn1-c1ccccn1)CC2 | . | 12

Quoted from the listing:
CN in HCMV NEC inh shows -10
OC(CCN1CCCCC1)(c1ccccc1)C1C[C@@H]2C=C[C@H]1C2 (stereo not given in full) in HCMV NEC inh shows -12
c1ccc2c(Oc3ccc4c(c3)OCO4)nncc2c1 in HCMV NEC inh shows -3
COc1ccc(CC#N)cc1OC in HCMV NEC inh shows -24
O=C(CSc1ncnc2ccccc12)Nc1ccccc1 in HCMV NEC inh shows -21
Cc1ccc(NC(=O)c2ccc(CN3CCN(C)CC3)cc2)cc1Nc1nc(-c2cccnc2)cs1 in HCMV NEC inh shows -25&-43&-54&-48

Further entries:
SMILES | GIV Gai3 FP | HCMV NEC inh
CN(C)S(=O)(=O)c1ccc(C(=O)NCc2ccc3[nH]c4c(c3c2)CCCC4)cc1 | . | 13
OCCC12CC3CC(C1)CC(CCO)(C3)C2 | . | 17&-10
Cc1cc(=O)oc2cc(OCc3ccccc3F)ccc12 | . | -1
CC(NS(=O)(=O)c1ccccc1)C(c1cccs1)N1CCOCC1 (stereo not given) | . | -6
CCCCC[C@H](O)/C=C/[C@H]1[C@H](O)CC(=O)[C@@H]1CCCCCCCCC(=O)O | . | 3&3
CS(=O)(=O)c1ccc2nc(NC(=O)C3CC3)sc2c1 | . | -8
CCOc1cc(/C=C2/SC(=Nc3ccccc3C(F)(F)F)NC2=O)ccc1O | . | -1
O=C1CN(c2ncnc3nc[nH]c23)CCN1CCc1ccccc1 | . | -9&-9
O=C(NCCn1ccnc1)c1cc(NCC2CC=CCC2)cc(S(=O)(=O)N2CCCC2)c1 (stereo not given) | . | -8
c1ccc(N2CCN(CCCOc3ccc4c(c3)OCO4)CC2)cc1 | . | -9
O=c1cc(CO)oc(C(Nc2nccs2)c2ccc(F)cc2)c1O (stereo not given) | . | -16
CC(=O)O[C@@]1(C(C)=O)CC[C@H]2[C@@H]3CC(C)C4=CC(=O)CC[C@]4(C)[C@@H]3CC[C@@]21C (stereo not given in full) | . | -4
CC(=O)Oc1cc2oc(=O)cc(-c3ccccc3)c2cc1Cl | . | 7
CC(C)CCCCCCC/C=C/C(=O)O | . | -17&-17
CCOC(=O)c1sc(=S)n(-c2ccc(OC)cc2)c1C | . | -44
Cc1c(O)cccc1C(=O)NC(CSc1ccccc1)C(O)CN1CC2CCCCC2CC1C(=O)NC(C)(C)C (stereo not given) | . | -31
N=C(N)SCCC[C@H](N)C(=O)O | . | -19&-19
CN(C)CCC=C1c2ccccc2COc2ccccc21 | . | -62
Cc1nn(C)c(Cl)c1NC(=O)OCC(C)(C)C | . | -7
N=c1ccn2c(n1)OC1C(O)C(CO)OC12 (stereo not given) | . | -13
CCOC(=O)c1ccsc1NC(=O)c1ccccc1 | . | 3&5
CC(C)N(C(=O)Cn1cnc2ccccc21)c1ccccc1 | . | -1
CC1=C(C)C(=O)C(C(CCCCCC(=O)O)c2ccccc2)=C(C)C1=O (stereo not given) | . | -59
O=C(O)COc1ccc2c(c1)oc(=O)c1ccccc12 | . | -16
CCOC(=O)c1c(NC(=O)c2cc(=O)c3ccccc3o2)sc(C)c1C | . | -12
CCOc1cccc2sc(=NC(=O)c3ccc(C#N)cc3)n(CC)c12 | . | -5
Cc1cc(=O)oc2cc(Oc3nncc4ccccc34)ccc12 | . | -1
CC(=O)Nc1nnc(-c2ccc(Cl)cc2)s1 | . | -22
CN(C)CCN1C(=O)c2cccc3cc(N)cc(c23)C1=O | . | -126
O=C(OC1C[N+]2(CCCOc3ccccc3)CCC1CC2)C(O)(c1cccs1)c1cccs1 (stereo not given) | . | -15
CCNC(=O)c1[nH]nc(-c2cc(Cl)c(O)cc2O)c1-c1ccc(OC)cc1 | . | 2
O=C(O)C(Sc1ncn[nH]1)c1ccccc1 (stereo not given) | . | -18
O=c1c2sccc2ncn1Cc1nc2ccccc2[nH]1 | . | 8
COc1ccc(-c2ccc3ncc4c(c3c2)n(-c2ccc(N3CCNCC3)c(C(F)(F)F)c2)c(=O)n4C)cn1 | . | -42
Cn1c(CCNC(=O)C(C)(C)C)nc2ccccc21 | . | -15
Cc1cc(NC(=O)CCC2CC2)n(C(C)C)n1 | . | 4
CCOc1ccc(OCC)c(S(=O)(=O)NCc2ccco2)c1 | . | -2
CN(C)Cc1c(O)ccc2cc(-c3nc4ccccc4o3)c(=O)oc12 | . | -12
O=C(c1cccs1)N1CCc2ccccc21 | . | -6
O=C(Nc1ccc(-c2csc(Nc3ccccc3)n2)cc1)c1cccc(C(F)(F)F)c1 | . | 0
CNCc1ccc(C)c(NC(=O)c2ccc(Nc3nc(-c4ccccc4)c4ccccc4n3)cc2)c1 | . | -44
Cc1ccc(-c2csc(NC(=O)c3ccccc3F)n2)cc1C | . | -27
O=C(CSc1nccn1-c1ccccc1)NCc1ccccc1 | . | -18
Cn1c(CCCNC(=O)C(C)(C)C)nc2ccccc21 | . | -15
CC(=O)N(CC(O)CO)c1c(I)c(C(=O)NCCO)c(I)c(C(=O)NCC(O)CO)c1I (stereo not given) | . | -63
N#Cc1c(NC(=O)CCN2CCOCC2)sc2c1CCCCC2 | . | 10&-2
CCOC(=O)c1sc2nc(N)c(C#N)c(-c3ccc(Cl)cc3)c2c1N | . | -10
CC1Cc2ccccc2N1C(=O)COc1c(F)c(F)c(F)c(F)c1F (stereo not given) | . | -15
CC1=C(C)CS(=O)N(S(=O)(=O)c2ccccc2)C1 (stereo not given) | . | -22
COc1ccc(-c2ccc(S(=O)(=O)N3CCCCCC3)cc2)cc1 | . | -3

7 entries from above in a different format:
Results follow in this order: GIV Gai3 FP	HCMV NEC inh
- Cn1c(CCCNC(=O)C(C)(C)C)nc2ccccc21
  .	-15
- CC1Cc2ccccc2N1C(=O)COc1c(F)c(F)c(F)c(F)c1F (stereo not given)
  .	-15
- CC(=O)N(CC(O)CO)c1c(I)c(C(=O)NCCO)c(I)c(C(=O)NCC(O)CO)c1I (stereo not given)
  .	-63
- CC1=C(C)CS(=O)N(S(=O)(=O)c2ccccc2)C1 (stereo not given)
  .	-22
- CNCc1ccc(C)c(NC(=O)c2ccc(Nc3nc(-c4ccccc4)c4ccccc4n3)cc2)c1
  .	-44
- COc1ccc(-c2ccc(S(=O)(=O)N3CCCCCC3)cc2)cc1
  .	-3
- O=C(CSc1nccn1-c1ccccc1)NCc1ccccc1
  .	-18

Bioassay records deposited in PubChem BioAssay by ICCB-Longwood Screening Facility, Harvard Medical School.

Only part of the results is shown, so the mix of outcomes need not match the whole.
